Compound activity from PubChem.
Mtb hypoxia rep = reduces hypoxia-regulated biosensor signal in M. tuberculosis; M. tuberculosis hypoxia-regulated fluorescent reporter, fluorescence; fluorescence inhibition, % (concentration not given with the values); 300,000 compounds, 0.1% hits; AID 1159583;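 active means 35 to 45% if threefold the growth effect, above 45% if 1.5-fold the growth effect; inactive means the rest, general growth blockers included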;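 further: wells of about 50 µL received 100 nL stock; 0% = vehicle wells and 100% = reference inhibitor wells; whole bacteria with a GFP reporter of the hypoxia response; strong numbers were not always called active; many hits fall short of the cut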
RN4220 kill = kills Staphylococcus aureus RN4220 | S. aureus RN4220 growth, OD600, 16 h | inhibition, % (test concentration not listed) | 330,000 compounds, 0.33% hits;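 active means z-score of -3 or lower and OD600 up to 0.18 on both plates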;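 further: plate controls were untreated cells for no effect and reference antibiotic for full effect; stock transfer was 100 nL into about 80 µL; one replicate is shown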
PrP 5UTR inh = inhibition of PrP 5' UTR reporter expression; cell-based PrP 5' UTR mRNA reporter, plate reader; inhibition, % (no concentration beside the values); 340,000 compounds, 0.35% hits;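 active means every replicate at 50% or more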;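 further: 0 = median of the neutral control wells; tested in H4 reporter cells; numbers are from one replicate; inactives centre near -14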
Sa ugtP lethal = compounds lethal to S. aureus RN4220 ugtP deletion mutant; OD600 growth, 16 h; some inactives read as strong as hits; growth inhibition, % (concentration not given with the values); 330,000 compounds, 0.54% hits; AID 1259309;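 active means z-score under -3 and OD600 up to 0.15 on both plates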;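 further: plate controls were untreated wells for no effect and antibiotic for full effect; wells of about 80 µL received 100 nL stock; the first replicate is given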
Bead autofluor = compound fluorescence in toxin protease inhibitor counterscreen | compound autofluorescence counterscreen, microsphere flow cytometry; stronger effect = higher value | fluorescence intensity (test concentration not listed) | 360,000 compounds, 3.1% hits;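 active means at least 3 SD above the mean of all compounds, about 16000 in these data; inconclusive means too few beads counted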;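 further: 100 nL of 1 mM stock went into each well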
BJeLR viability = kills HRASV12-expressing BJeLR cells; BJeLR (HRASV12) viability, CellTiter-Glo ATP luminescence, 48 h; reference of the scale not given here; inhibition, % (no concentration beside the values); 300,000 compounds, 0.17% hits;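 active means replicate mean above 50%; inconclusive means above 50% but judged a plate artefact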;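 further: 50 nL library stock added to about 25 µL; numbers are from one replicate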
Mtb hypoxia rep growth = also measured in Mtb hypoxia rep; calls as there; growth inhibition, %; measured here: M. tuberculosis growth (absorbance);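 0% = vehicle and 100% = reference antibiotic; read after six days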
The depositor's hits bear a star; ? = inconclusive; . = not tested or not shown.

SMILES	Mtb hypoxia rep	Mtb hypoxia rep growth	RN4220 kill	PrP 5UTR inh	Sa ugtP lethal	Bead autofluor	BJeLR viability
COC(=O)c1cc(-c2ccc(NC(C)=O)cc2)nc2ccccc12	7	9	4.4	-15	-1	2092	-1
O=C1C2CCN(CC2)C12CC2c1ccc(C(F)(F)F)cc1 (centres undefined)	15	2	2.5	-19	6	4092	0
O=C(CN(C(=O)Cn1nnc(-c2ccccc2F)n1)c1cnc2ccccc2c1)NCC1CCCO1 (centres undefined)	3	-6	-2.6	-19	1	2295	-7
OC1(c2ccc(F)cc2)CCNC1 (centres undefined)	11	7	6.8	-29	-4	23064*	-10
Cc1c(Cl)cccc1NC(=S)NC1CCN(C(C)C)CC1	5	8	1.7	-6	0	4481	-2
COC(=O)c1ccc(N2C(=O)c3cc(N4CCOCC4)c([N+](=O)[O-])cc3C2=O)cc1	16	6	2.6	-7	1	2028	4
COc1ccc(CCNC(=O)CCC(=O)n2ncc3ccc(Cl)cc32)cc1OC	-5	-8	-5.7	-5	-7	6077	5
CCn1nc(NC(=O)c2ccncc2)c2cc3ccccc3nc21	.	.	5.6	-9	1	3977	0
CCOc1ccc(C(=O)Nc2cccc3ncccc23)cc1Br	13	9	1.2	-57	4	4253	2
COc1cc(C=NNc2nn3cnnc3c3ccccc23)ccc1O	-3	2	-1.1	.	-1	.	.
CCSc1nnc(NC(=O)C(C)C)s1	-11	-1	1.1	3	-22	4302	-5
CCOC(=O)N1CCN(C(=O)C(NC(=O)c2ccco2)C(C)C)CC1 (centres undefined)	14	7	4.5	-59	9	4128	0
O=C1NC(c2cccc([N+](=O)[O-])c2)Oc2ccccc21 (centres undefined)	-4	4	7.8	-15	5	4266	-2
CCOC(=O)c1cc(C)[nH]c(=O)c1C#N	.	.	.	-6	.	3661	1
CCOc1ncccc1C(=O)OCC(=O)Nc1cc(S(=O)(=O)N(CC)CC)ccc1C	-5	5	-0.2	-15	2	4470	-3
Cc1ccc2oc(=O)n(CCOc3ccccc3C)c2c1	1	2	10	-4	-14	3275	-8
COc1cccc(-c2ccc3ncnc(NCc4cccnc4)c3c2)c1	-4	2	12	3	-2	3526	.
COC(=O)c1ccccc1N1C(=O)[C@@H]2C(c3ccc(Br)cc3)=NO[C@@H]2C1=O	.	.	0.4	-6	15	2494	-8
Cc1ccc(CNC(=O)CCSCc2cccc(F)c2)cc1	0	2	0.7	-11	-3	3965	-2
CNC(=O)CCN(Cc1ccco1)S(=O)(=O)c1ccc(OC)c(OC)c1	2	4	2.4	-9	12	3413	-7
CN(c1ccccc1)S(=O)(=O)c1cccc(NC(=O)CN2CCc3ccccc3C2)c1	-3	-1	6.5	-12	3	4579	-1
O=C(Cn1c(=O)cnc2ccccc21)NNC(=O)c1ccccc1Cl	-1	2	3.9	3	4	5963	.
O=C(O)c1ccc(-c2ccc(/C=N/Nc3ccc([N+](=O)[O-])cc3)o2)cc1	.	.	.	-46	.	?	16
Clc1nc2nc3n(c2nc1Cl)CCC3	8	-2	0.3	-26	3	4065	6
CCCN(CCC)CCCNC(=O)c1cn(C)c2ccc(S(=O)(=O)N(C)C3CCCCC3)cc2c1=O	1	4	-0.5	-9	-5	5576	-1
Cc1ccc(-c2nc3ccc(C(=O)O)cc3nc2-c2ccc(C)cc2)cc1	20	16	-0.9	-8	20	10274	11
CCOC(=O)c1cnc2c(c(C)nn2C)c1Oc1ccccc1F	-12	5	1.8	-15	1	4159	-3
CC1(C)CC(=O)c2c(-c3cccs3)n[nH]c2C1	5	5	3.4	-3	-2	9374	-3
COc1cc(C2Nc3ccccc3C(=O)N2c2ccc3c(c2)OCCO3)ccc1OCC(C)C (centres undefined)	1	-1	7.0	-23	5	3151	2
CN(C)c1cccc(N=C2C=C(N3CCOCC3)CC(C)(C)C2)c1	12	4	1.0	-2	0	2332	-1
CCN(CC)c1ccc(-c2nn3c(-c4cccnc4)nnc3s2)cc1	18	19	9.3	-24	-13	5565	-3
COc1ccc(O)c(C(=O)c2cnn(C(=O)c3ccc(C)cc3)c2)c1	7	8	-2.8	-13	7	.	.
COC(=O)C1=C(c2ccc(F)cc2F)CC2CCC1N2C(=O)NCCCOC(C)C (centres undefined)	4	0	5.4	.	-3	.	.
CCC(C(=O)NC1CCCC1)N(Cc1cccs1)C(=O)Cn1nnc(-c2ccc(OC)c(OC)c2)n1 (centres undefined)	-5	3	-5.3	1	3	6043	4
CC(C)N(C(=O)COC(=O)[C@@H]1CC(O)CN1S(=O)(=O)c1ccc(C(C)(C)C)cc1)C(C)C (some centres undefined)	13	9	4.0	-5	2	3508	5
CCC1=Nc2cc(C(=O)NCCN3CCOCC3)ccc2Sc2ccc(C)cc21	-6	2	2.4	6	-2	5424	10
Cc1ccc(S(=O)(=O)/N=C(\c2ccc(F)cc2)n2c(C)nc3ccccc32)cc1	.	.	.	-7	.	2631	-2
O=C(CSc1nc2ccccc2[nH]1)Nc1ccc2c(c1)CCC2	2	-6	2.8	-25	-13	2202	-6
O=C(c1ccc([N+](=O)[O-])cc1)N1CCSC1c1ccccc1Cl (centres undefined)	5	6	5.8	-4	16	3147	0
Nc1cc(OCC(F)(F)F)cc(OCC(F)(F)F)c1	3	2	1.5	-4	9	4204	-6
Cc1cccc(N2C(=O)c3ccc(C(=O)Nc4c[nH]c(=O)[nH]c4=O)cc3C2=O)c1	2	-5	9.0	3	5	5910	7
CCOC(=O)N1CCN(C(=O)Nc2ccc3nc(C)c(C)nc3c2)CC1	8	2	1.1	-6	2	2420	3
CC1(C)CC(=O)C=C(c2cccc(Br)c2)C1	18	7	-11	-8	-8	4140	.
CCCCC[n+]1ccn(-c2nc3ccccc3nc2[N-]S(=O)(=O)c2ccc(C)cc2)c1	.	.	2.6	-17	7	3515	1
COC(=O)c1ccc(CSc2ncnc3c2sc2nc(N4CCOCC4)c4c(c23)CCCC4)o1	6	-2	-2.1	-24	25	?	-3

Complete entries, quoted from the list.
`COC(=O)C1=C(c2ccc(F)cc2F)CC2CCC1N2C(=O)NCCCOC(C)C` (centres undefined) reads Mtb hypoxia rep = 4; Mtb hypoxia rep growth = 0; RN4220 kill = 5.4; PrP 5UTR inh = .; Sa ugtP lethal = -3; Bead autofluor = .; BJeLR viability = .
`CCN(CC)c1ccc(-c2nn3c(-c4cccnc4)nnc3s2)cc1` reads Mtb hypoxia rep = 18; Mtb hypoxia rep growth = 19; RN4220 kill = 9.3; PrP 5UTR inh = -24; Sa ugtP lethal = -13; Bead autofluor = 5565; BJeLR viability = -3

Other records follow.
SMILES	Mtb hypoxia rep	Mtb hypoxia rep growth	RN4220 kill	PrP 5UTR inh	Sa ugtP lethal	Bead autofluor	BJeLR viability
CC(Oc1cccc(Cl)c1)C(=O)Nc1ccc([N+](=O)[O-])cn1 (centres undefined)	10	9	3.3	-7	-9	2629	-11
COc1ccc(C(=O)CSc2cc(C)nc3nc(C)nn23)cc1OC	4	-1	0.5	-13	5	4259	-16
Cc1ccc(C(=O)CCC(=O)OCC(=O)N2c3ccccc3NC(=O)C2(C)C)cc1	-4	8	3.9	-22	2	6511	.
CCC(C)NC(=O)CSc1nc2ccsc2c(=O)n1NC(=O)c1ccccc1 (centres undefined)	-5	-1	1.7	-14	-3	10197	2
CC(=O)n1c2ccccc2c2ccccc21	20	10	-0.9	-17	0	9822	-17
Cc1cccc(-c2cc(C(=O)N/N=C/c3cccnc3)c3ccccc3n2)c1	.	.	.	-42	.	3758	-10
Cc1ccc(S(=O)(=O)N[C@H](C(=O)N2CCC3(O)CCCCC3C2)c2ccccc2)cc1 (some centres undefined)	.	.	.	-19	.	3005	1
CCOc1ccccc1N1CCN(CC(=O)Nc2ccnn2C2CCCC2)CC1	7	7	4.7	-17	2	3366	.
CCSc1cc(N2CC(C)OC(C)C2)nc(-c2ccccc2Cl)n1 (centres undefined)	11	6	-2.3	5	81	3272	2
Cc1cccc(N=[N+]([O-])c2cccc(C)n2)n1	6	6	1.8	-51	-5	3600	.
Cc1nc2ccccc2n1S(=O)(=O)c1ccc(S(=O)(=O)N2CCCCCC2)cc1	6	7	3.5	-11	3	14483	3
CC(=O)Cc1cc(=O)c2c(C)cc(O)c(C3OC(CO)C(O)C(O)C3O)c2o1 (centres undefined)	.	.	6.9	-6	-7	4294	0
CCc1ccc2nc3c(c(C(=O)O)c2c1)CCC3	-3	-3	0.2	-27	0	22313*	4
Cn1cc(SCC(=O)NCc2ccc(F)cc2)c2ccccc21	-3	8	-3.9	-2	-17	4364	2
CCOC(=O)c1ccc(NS(=O)(=O)c2c(C)n[nH]c2C)cc1	6	3	1.4	-25	3	5669	.

The list goes on; it opens with the four that closed the last part.
SMILES	Mtb hypoxia rep	Mtb hypoxia rep growth	RN4220 kill	PrP 5UTR inh	Sa ugtP lethal	Bead autofluor	BJeLR viability
CC(=O)Cc1cc(=O)c2c(C)cc(O)c(C3OC(CO)C(O)C(O)C3O)c2o1 (centres undefined)	.	.	6.9	-6	-7	4294	0
CCc1ccc2nc3c(c(C(=O)O)c2c1)CCC3	-3	-3	0.2	-27	0	22313*	4
Cn1cc(SCC(=O)NCc2ccc(F)cc2)c2ccccc21	-3	8	-3.9	-2	-17	4364	2
CCOC(=O)c1ccc(NS(=O)(=O)c2c(C)n[nH]c2C)cc1	6	3	1.4	-25	3	5669	.
O=C(Nc1ccc(C(=O)O)cc1)C(=Cc1ccc2c(c1)OCO2)NC(=O)c1cccc(Br)c1	-2	9	1.3	.	0	.	.
C/C(=N\NC(=O)c1ccc(N2CCCC2=O)cc1)c1ccncc1	.	.	.	-20	.	4056	-6
O=C(NN=Cc1ccccc1[N+](=O)[O-])c1cccs1	2	-6	1.6	.	3	.	.
Cn1ncc(Cl)c1C(=O)N1CCN(S(=O)(=O)c2cccs2)CC1	1	-2	1.0	-11	2	5698	6
N#C/C(=C\c1ccc([N+](=O)[O-])cc1)c1nc(C2CC2)cs1	2	4	1.0	-60	-10	2303	6
Oc1ccccc1Nc1ncnc2c1oc1ccccc12	2	4	-6.8	-44	-21	.	-3
CCOC(=O)C1CCCN(S(=O)(=O)c2ccc3c(c2)N(C)C(=O)CC(=O)N3C)C1 (centres undefined)	3	9	0.1	-11	-5	5132	-1
CCn1cc(/C=C(\NC(=O)c2ccccc2)C(=O)N2CCOCC2)c2ccccc21	11	10	-1.2	-27	-7	4149	-1
NC(=O)c1ccc(C(=O)c2ccc([N+](=O)[O-])cc2)cc1	6	6	48	-28	4	2207	-3
CC(=O)Nc1ccc(NS(=O)(=O)c2ccc(Cl)s2)cc1	17	4	11	-29	5	4321	-3
O=C(CCCn1c(=O)oc2ccccc21)NC1CCCCCC1	7	-1	0.9	.	5	.	9
O=C(NCCCc1ccccc1)C(=O)c1c[nH]c2ccccc12	-1	-4	-1.3	-22	-3	5847	-10
COc1ccc2c(c1)c(CC(=O)OCC(=O)O)c(C)n2C(=O)c1ccc(Cl)cc1	.	.	1.0	-32	5	4497	6
C=CCNC(=S)NNC(=O)c1cc(O)ccc1O	17	-4	2.5	-17	3	4521	-4
COc1ccccc1N1CCN(C(=O)c2cc3c(s2)CCC3)CC1	10	1	9.7	-10	10	3559	-4
Oc1ccc(Nc2nc(-c3ccc4ccccc4c3)cs2)cc1	-1	-2	15	-74	42	10210	-9
Cc1cccc(N(CC(N)=O)C2SC(=O)N(c3ccccc3)C2=O)c1 (centres undefined)	.	.	0.8	-16	-4	2652	-5
CCCCN(CC)CCNC(=O)C1c2cc(OC)c(OC)cc2C(=O)N2CCc3ccccc3C12 (centres undefined)	.	.	2.5	-7	4	5391	10
O=C(Cc1ccsc1)Nc1ccc2c(c1)OCO2	5	-2	3.7	-17	5	6365	.
Cc1cc(C)nc(SCC(=O)OC(C)C(=O)Nc2ccccc2)n1 (centres undefined)	7	8	5.9	-4	5	5383	-2
Cc1cc(C)nc(SCc2cc(=O)c(OC(=O)c3ccc(Cl)c([N+](=O)[O-])c3)co2)n1	5	15	-2.0	-16	11	2549	-12
CC(=O)N1c2ccc(S(=O)(=O)N3CCC(C(=O)NC4CCCCC4)CC3)cc2CC1C (centres undefined)	2	4	0.1	-25	16	5834	-1
COCCCN(C(=O)c1cccnc1SC)c1c(N)n(Cc2ccccc2)c(=O)[nH]c1=O	4	5	1.5	-14	-2	8557	-8
Cc1cccc(S(=O)(=O)Nc2nc3ccccc3nc2NCC2CCCO2)c1 (centres undefined)	4	1	2.4	5	0	3161	10
O=S(OCCN1CCCC1)C(c1ccccc1)c1ccccc1 (centres undefined)	5	5	2.1	-8	4	3162	.
